# Compound activity from PubChem BioAssay.
# Hsc70 ATP site: Hsc70 inhibitors, probe displacement, primary screen, biochemical, fluorescence polarization (AID 568); Hsc70 fluorescence polarization, probe displacement; higher % means a stronger effect; strong numbers were not always called active; displacement, % at 20 µM, or IC50 in µM where a hit was titrated; 83,000 tested, under 10 active;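 active = displacement above 50% without optical interference and an IC50 on retest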;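 also: ATPase domain with a fluorescein-tagged ATP probe; 0% = vehicle and 100% = excess ADP; read after one hour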
# MT1-MMP reporter: inhibitors of MT1-MMP promoter transcription, cell-based, luciferase reporter, luminescence (AID 618) | MT1-MMP promoter luciferase reporter cells, luminescence | calls from a first round at 10 µM; hits with a dose series show EC50 in µM | actives 0.62% (n = 87,000);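 active = over half of the reporter light lost at 10 µM or EC50 under 50 µM; inactive = the rest and hits that failed the dose series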;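 also: actives suppress MT1-MMP promoter-driven transcription so potencies describe inhibitors; HT1080 fibrosarcoma cells; overnight exposure; toxic or luciferase-blocking compounds were not removed from the actives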
# WNV NS2B-NS3 inh: inhibitors of WNV NS2B-NS3 protease, primary screen, biochemical, fluorogenic substrate; fluorogenic substrate Ex360/Em465; active compounds read low; AID 577, 2007; z-score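 (tested at a level between 10 and 100 µM)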; actives 0.18% (n = 65,000);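 active = z-score at -3 or under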;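 also: score is relative to mean and spread of the compound wells of a plate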
# Target sequence (P06935 1371-1501 limits assumed): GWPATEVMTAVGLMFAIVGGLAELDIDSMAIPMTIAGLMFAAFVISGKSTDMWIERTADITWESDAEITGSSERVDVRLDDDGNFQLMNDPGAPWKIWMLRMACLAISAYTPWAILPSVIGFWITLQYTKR
# Target sequence (P06935 1502-1679 limits assumed): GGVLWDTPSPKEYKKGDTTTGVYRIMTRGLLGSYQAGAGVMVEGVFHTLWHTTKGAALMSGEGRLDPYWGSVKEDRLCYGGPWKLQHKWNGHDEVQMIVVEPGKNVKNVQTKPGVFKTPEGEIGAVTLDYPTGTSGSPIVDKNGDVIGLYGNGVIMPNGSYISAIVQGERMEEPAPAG
# * = called active by the depositor; i = inactive; / = no result given.
smiles,Hsc70 ATP site,MT1-MMP reporter,WNV NS2B-NS3 inh
COc1ccc(NC(=O)CN2CCN(CC(=O)Nc3cc(OC)cc(OC)c3)CC2)cc1,1.8%,i,-0.08
CCOC(=O)C1=C(CSc2nc(-c3ccccc3)ccc2C#N)OC(N)=C(C#N)C1c1cccnc1 (stereo not given),1.1%,i,/
O=C1c2ccccc2C(Nc2ccc(Cl)cn2)N1c1ccccn1 (stereo not given),-0.1%,i,-0.59
COc1ccc(CN2CCCCC2C)cc1C (stereo not given),4.6%,i,/
CCc1ccc(NC(=O)C2CC(=O)N=C(N)S2)cc1 (stereo not given),-0.5%,i,0.46
N#CC1=C(N)C(C#N)(C#N)[C@H](c2ccncc2)[C@H]2CC3(CC=C12)OCCO3,2.8%,i,-0.19
O=C1c2ccccc2OC2(C=Cc3ccccc3O2)N1Cc1ccccc1 (stereo not given),-1.3%,i,/
CCN(CC)c1ccc(N2C(=O)/C(=C/c3cccs3)SC2=S)cc1,1.7%,i,/
Cc1nn(C(C)C(=O)NCCCc2ccccc2)c(=O)c2cc3occc3n12 (stereo not given),-3.1%,i,/
Cc1cccn2c(=O)c3cc(C(=O)NCc4cccnc4)c(=N)n(C(C)C)c3nc12,-0.3%,i,3.9
O=C(C1COc2ccccc2O1)N1CCN(c2ccc(F)cc2)CC1 (stereo not given),-1.1%,i,0.35
COC(=O)Cn1c(CCS(=O)(=O)c2ccc(C)c(C)c2)nc2ccccc21,-7.9%,i,-0.76
OC(CN1CCCCC1)Cn1c(C(F)(F)F)nc2ccccc21 (stereo not given),0.1%,i,-0.39
O=C(NCCSCc1ccccc1)c1ccc(Cl)c(S(=O)(=O)N2CCOCC2)c1,-5.1%,i,/
O=C(COC(=O)c1n[nH]c2ccccc12)Nc1ccc(S(=O)(=O)N2CCCC2)cc1,-25%,i,-0.95

# Seven of these compounds in another layout.
# Second line of a record – Hsc70 ATP site | MT1-MMP reporter | WNV NS2B-NS3 inh
O=C1c2ccccc2C(Nc2ccc(Cl)cn2)N1c1ccccn1 (stereo not given)
 : -0.1% | i | -0.59
N#CC1=C(N)C(C#N)(C#N)[C@H](c2ccncc2)[C@H]2CC3(CC=C12)OCCO3
 : 2.8% | i | -0.19
O=C1c2ccccc2OC2(C=Cc3ccccc3O2)N1Cc1ccccc1 (stereo not given)
 : -1.3% | i | /
O=C(NCCSCc1ccccc1)c1ccc(Cl)c(S(=O)(=O)N2CCOCC2)c1
 : -5.1% | i | /
OC(CN1CCCCC1)Cn1c(C(F)(F)F)nc2ccccc21 (stereo not given)
 : 0.1% | i | -0.39
O=C(COC(=O)c1n[nH]c2ccccc12)Nc1ccc(S(=O)(=O)N2CCCC2)cc1
 : -25% | i | -0.95
COC(=O)Cn1c(CCS(=O)(=O)c2ccc(C)c(C)c2)nc2ccccc21
 : -7.9% | i | -0.76

# New compounds follow
smiles,Hsc70 ATP site,MT1-MMP reporter,WNV NS2B-NS3 inh
Cc1ccc(C)c(N2CCN(Cc3nnnn3C3CCCCC3)CC2)c1,5.4%,i,1.1
CCOC(=O)C1C(=O)CC(C)(O)C(C(=O)OCC)C1c1ccc2c(c1)OCO2 (stereo not given),0.2%,i,-0.49
Cc1ccc(CNC(=O)CCCNC(=O)c2ccc(Cl)cc2)n1C,10%,i,0.2
Nc1cc(=O)[nH]c(SCC(=O)Nc2ccc(Br)cc2)n1,-1.3%,i,-0.56
CC(=O)NC(Cc1ccc(F)cc1)C(=O)O (stereo not given),-2.8%,i,0.68
COc1ccc(Cn2nnc3c(=O)[nH]c(C4CCCN(C(=O)c5ccccc5)C4)nc32)cc1 (stereo not given),1.9%,i,0.09
COc1cc(-c2nc3n(n2)C(c2ccc(F)cc2)C2=C(CCCC2=O)N3)cc(OC)c1OC (stereo not given),-2.3%,i,-1.4
Cc1cccc(OCC(=O)Nc2nnn(C)n2)c1C,2.3%,i,/
COc1cccc(-c2cc(C(=O)N3CCc4ccccc4C3)no2)c1,3.1%,i,-1.8
CC(=O)c1ccc(OCC(C)C)c(CC(C(N)=O)C(N)=O)c1,1.4%,i,-0.27
COc1ccc(C(=O)Nc2cc(Cl)ccc2Cl)c(OC)n1,4.1%,i,1.4
CN1CC[n+]2cnc3ccccc3c21,2.4%,i,-0.33
COC(=O)Cn1c(CN2CCOCC2)nc2c1c(=O)[nH]c(=O)n2C,-2.0%,i,0.05
COc1ccc(S(=O)(=O)N2CCN(c3cc(-c4ccccc4)nc4ncnn34)CC2)cc1,-0.9%,i,-0.88
CC(=O)NC1C(=O)N=C(SCC(=O)NC2CCCCC2)NC1=O (stereo not given),-4.3%,i,-0.24
CCOc1ccc2nc(NC(=O)c3cnc(C)cn3)sc2c1,5.5%,i,/
CCOC(=O)c1cn[nH]c1N,0.6%,i,-0.1
COc1ccc(OC)c(NC(=O)CSCC(=O)O)c1,1.0%,i,-1.7
O=C1c2ccccc2C(=O)N1CCCCN(C(=O)c1ccco1)c1ccc(Cl)cc1,6.8%,i,-0.24
CN(CC(O)COc1ccc(OCC(O)CN(C)C2CCCCC2)cc1)C1CCCCC1 (stereo not given),-6.0%,i,-0.13
CCOC(=O)C1CCCN(Cc2ccc(OC)cc2OC)C1 (stereo not given),8.9%,i,-1.4
Cc1cccc(N2C(=O)SC(N(C)c3ccccc3)C2=O)c1 (stereo not given),-3.1%,i,0.21
O=C(Nc1ccccc1)Nc1ccc2snnc2c1,-6.1%,i,/
CCc1c(C)sc(NC(=O)c2cccs2)c1C(N)=O,1.3%,i,/
CCN(CC)c1ccc(/C=c2/sc3nnc(-c4ccccc4C)n3c2=O)cc1,8.1%,i,/
CCN1CCc2c(C#N)c(N3CCCCC3)nc(N3CCOCC3)c2C1,7.3%,i,-0.29
CCOC(=O)N1CCN(C(=O)CN(C)S(=O)(=O)c2ccc3c(c2)C(C)(C)C(=O)N3C)CC1,8.7%,i,0.47
Nc1nnc(-c2ccncc2)s1,4.7%,i,0.36
O=C(CCN1C(=O)COc2ccccc21)NCCN1CCN(c2ccccc2F)CC1,-3.2%,i,-1
Cc1ccc(C(=O)NC2CC(C)(C)NC(C)(C)C2)cc1C,-5.6%,i,-0.19

# Molecules listed so far that contain two or more sulfur atoms:
smiles,Hsc70 ATP site,MT1-MMP reporter,WNV NS2B-NS3 inh
CCN(CC)c1ccc(N2C(=O)/C(=C/c3cccs3)SC2=S)cc1,1.7%,i,/
O=C(NCCSCc1ccccc1)c1ccc(Cl)c(S(=O)(=O)N2CCOCC2)c1,-5.1%,i,/
CCc1c(C)sc(NC(=O)c2cccs2)c1C(N)=O,1.3%,i,/

# Remaining list, next part
Structure,Hsc70 ATP site,MT1-MMP reporter,WNV NS2B-NS3 inh
c1ccc(-c2cc3c(ccc4nonc43)nn2)cc1,6.0%,i,-0.35
Cc1ccc(OCc2nnc(SCC(=O)Nc3nccs3)n2-c2ccccc2)cc1C,0.1%,i,/
CCOC(=O)N1CCN(C(=O)CSc2nnc(-c3ccc(Cl)s3)o2)CC1,0.1%,i,0.87
Cc1[nH]nc2c1/C(=N\O)CC(C)(C)C2,-7.5%,i,2
COc1cccc(C2=NOC(C(=O)Nc3ccc(C(C)=O)cc3)C2)c1 (stereo not given),1.9%,i,-0.03
COc1ccc(-c2c3c(=O)n(C)c(=O)n(C)c3c3nnc4ccccc4n23)cc1,-68%,i,-0.35
COc1ccc(CCNC(=O)c2ccc3c(c2)NC(=O)C(N2CCOCC2)S3)cc1OC (stereo not given),-2.9%,i,-0.64
CCC(=O)Nc1nc(CC(=O)Nc2ccccc2OC)cs1,4.1%,i,/
Nc1ccc(-c2n[nH]c(=O)c3ccccc23)cc1N,-9.6%,i,-0.09
COc1ccc(C2(O)CCN(C(=O)c3c(F)cccc3F)CC2)cc1,-4.7%,i,0.69
Cc1cc(N2C(=O)CC(Cc3ccc(Cl)cc3)C2=O)no1 (stereo not given),0.3%,i,/
CCn1c(=O)n(CC)c2cc(S(=O)(=O)NCCOc3ccccc3)c(C)cc21,-0.3%,i,-0.42
O=C(COc1nnnc2ccccc12)N1CCCc2ccccc21,-0.1%,i,-0.41
Cc1ccc(S(=O)(=O)NCCCCC(NC(=O)OC(C)(C)C)C(=O)O)cc1 (stereo not given) (tested in a mixture with another compound),2.7%,i,-0.57
CC(=O)c1c(C)[nH]c(C(=O)COc2cc(C)ccc2C(C)C)c1C,-2.4%,i,/
CCOc1ccc(NC(=O)CN2CCN(CC(=O)Nc3ccc(F)cc3)CC2)cc1,-3.9%,i,1.7
CCC1CCCCN1C(=O)N[C@@H](Cc1ccccc1)C(=O)O (stereo not given in full),-7.9%,i,1.1
CCOC(=O)N1CCC(NC(=O)c2ccc3nc4ccccc4c(=O)n3c2)CC1,-0.9%,i,/
COc1ccc(-n2cnnc2SCc2cnc(-c3ccccc3)s2)cc1,-4.4%,i,-0.007
CCOC(=O)C1CCCN(C(=O)c2ccc(OC(C)=O)cc2)C1 (stereo not given),2.4%,i,-1.3
CC1=C(C(=O)OC(C)C)C(c2cccc(F)c2)N2C(=O)C(C)SC2=N1 (stereo not given),-0.5%,i,-0.51
O=C(N/N=C/c1ccco1)c1cc(-c2ccc3ccccc3c2)n[nH]1,2.6%,i,/
O=C(Nc1ccc(Br)cn1)C1CCCN1S(=O)(=O)c1ccccc1 (stereo not given),3.6%,i,/
O=C1NCCCC1C(=O)Nc1cccc(C(F)(F)F)c1 (stereo not given),2.8%,i,0.11
CCN(CC)S(=O)(=O)c1cc(C(=O)Nc2nncs2)c(Cl)cc1Cl,0.1%,i,0.6
Cn1cc(S(=O)(=O)N2CCc3ccccc3C2)c(=O)n(C)c1=O,0.0%,i,0.37
O=C(Nc1ccccc1C(=O)NCC1CCCO1)c1ccco1 (stereo not given),5.2%,i,-0.16
COC(=O)C1=CN(C)C=C(C(=O)OC)C1c1ccc(O)c(OC)c1,-4.6%,i,0.03
O=C(Nc1ccc(Cl)cc1Cl)C1=Cc2ccccc2OC1,3.6%,i,/
CC(NC(=O)OC(C)(C)C)C(=O)N1CCCC1C(=O)NC(Cc1ccccc1)C(N)=O (stereo not given),4.2%,i,1.2
CCOC(=O)C(C(=O)OCC)C(CC(=O)C1CC1)c1ccccc1 (stereo not given),5.7%,i,-0.43
CCOc1cc(NC(=O)c2ccco2)c(OCC)cc1NC(=O)CCC(=O)NCc1cccnc1,-0.1%,i,0.13
Cn1nc(-c2ccc(Cl)cc2)c2cc(C(=O)N3CCN(C(=O)c4ccco4)CC3)sc21,-2.0%,i,0.59
COC(=O)Nc1ccc2c(c1)ncn2C1CCCCC1,-4.3%,i,0.34
CC(C)(C)C1CCC2(CC1)NC(=S)N(c1ccccc1)N2 (stereo not given),-1.2%,i,/
O=C(CCCC(=O)N(CC(=O)NC1CCCC1)Cc1ccc(F)cc1)Nc1ccccn1,1.2%,i,-1.3
COC(=O)C1=C(C)N(c2cccc(C(C)=O)c2)C(=O)C1,-1.3%,i,0.17
CCOC(=O)N1CCN(C(=O)C2CCC(C(=O)N3CCN(C(=O)OCC)CC3)CC2)CC1 (stereo not given),3.8%,i,-0.82
CC(=O)c1c(N2CCN(c3ccccc3)CC2)nc(=S)n(-c2ccccc2)c1C,-1.6%,i,-1.6
COc1ccc(N2CCN(Cc3nc(N)nc(Nc4ccccc4OC)n3)CC2)cc1,0.2%,i,-0.66
Cc1ccnc2c(N3C(=O)C4C5C=CC(C5)C4(C)C3=O)cccc12 (stereo not given),-0.6%,i,0.03
CCOC(=O)c1nnn(-c2nonc2-n2cccc2)c1CCl,0.0%,i,/
COC(=O)COc1ccc(S(=O)(=O)Nc2ccccc2SC)cc1,-6.1%,i,-0.89
CCOC(=O)Nc1cc(=O)c2ccccc2o1,-3.1%,i,-0.34
COn1c(=O)c(=O)n(OC)c2ccccc21,4.1%,i,/
CCOc1ccc2nc(NS(C)(=O)=O)sc2c1,0.5%,i,1.6
O=c1c2ccccc2n(Cc2cccc(F)c2)c(=O)n1C1CCCC1,-1.5%,i,-0.73
Cc1ccc2nsnc2c1S(=O)(=O)NCc1ccncc1,-2.0%,i,0.19
COC(=O)CCC/C=C1/SCC(NC(=O)c2ccccc2)C1O (stereo not given),1.5%,i,-0.12
CCC(C(=O)N1CCc2cc(OC)c(OC)cc2C1)c1ccccc1 (stereo not given),-1.9%,i,-0.46
Cn1c(CN2CCOCC2)nnc1SCC(N)=O,2.7%,i,/
Cc1ccc2cc(CN(C(=O)c3ccco3)c3ccccc3)c(=O)[nH]c2c1,1.2%,i,0.01
O=C(NCC1CCCO1)c1cc(-c2ccc(Cl)cc2Cl)on1 (stereo not given),0.7%,i,/
Cc1ccc(-c2nn3c(C)nnc3s2)cc1NC(=O)c1ccc(-c2ccc(Cl)cc2Cl)o1,-27%,i,-1.5
Cc1ccc(C)c(N(CC(=O)N(C)C)S(C)(=O)=O)c1,4.1%,i,-1.8
CN1CCN(Cc2c(O)c(Cl)cc3c(-c4ccccc4)cc(=O)oc23)CC1,0.6%,i,-0.5
C=CCn1c(NCCOC)nc2c1c(=O)n(C)c(=O)n2C,-5.8%,i,0.42
Cc1ccccc1CS(=O)(=O)CCC(=O)NCCCN1CCOCC1,-3.3%,i,0.39
